Compound activity: PubChem BioAssay, National Center for Advancing Translational Sciences (NCATS)
Menin-MLL FL inh – displaces fluorescein MLL peptide from human menin. 290,000 tested, under 10 active. Fluorescence polarization, fluorescein-MLL peptide displacement from menin. AID 1766. FP activity change, % at 61.4 µM; inconclusive = falling polarisation curve, or a change in total fluorescence; inactive = total fluorescence flat and polarisation flat or rising; no compound was filed as active; the % refers to the polarisation; negative = inhibition;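 note: % of control where 0% means no effect; inhibitors lower the polarisation; unlabelled MLL peptide was the positive control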
gsp antag – antagonizes gsp, the McCune-Albright syndrome mutation; hit rate 0.4% among 340,000; Potency, µM (series often up to 76.9 µM), for the others: top-dose activity change, negative = inhibition, hits mostly inhibitors; gsp-mutant cells, cAMP HTRF, 30 min; control for the full effect not named in the record; AID 624288; active = falling curve of any shape with a large fitted effect; inconclusive = falling curve, mostly with a smaller effect; inactive = flat or rising curve; cell line not stated here;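 note: intracellular cAMP measured with PDE inhibitor Ro 20-1724 present during compound exposure; potency is the fitted concentration of half-maximal effect; % is set by controls: 0 for no effect and ±100 for the full control effect; nearly all actives have a fitted effect of over 65% in size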
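Cells in G418 medium, seeded 16-24 h, 37C; buffer exchange to DPBS + 1 mM CaCl2, 0.5 mM MgCl2, 0.05% BSA; cpds in DMSO + […] (300 uM stock), 30 min 37C; HTRF cAMP detection.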
gsp agonist – gsp mutant agonism | AID 624287 | Potency, µM (doses to about 76.9 µM), for the others: at the top dose activation (cAMP increase), actives largely listed as activators | gsp mutant cells, cAMP HTRF, 30 min; control for the full effect not named in the record | hit rate 0.13% among 340,000; active = well fitted activation curve with a large enough effect; inconclusive = small, poorly fitted or top-dose-only effect, or another doubt; inactive = no such curve, though single readings can be large or run the other way; cell line not stated here;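 note: phosphodiesterase inhibitor Ro 20-1724 added with compounds to block cAMP breakdown; potency is the fitted concentration of half-maximal effect; nearly all actives have a fitted effect of over 60% in size; about a fifth of the inactives were tested at one dose only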
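Cells in DMEM/10% FBS with G418 were pretreated with compounds in DMSO plus […] (300 uM stock) for 30 min at 37C. cAMP was measured by HTRF (cAMP-d2 plus anti-cAMP antibody-K) after 30 min at room temperature.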
D2 ag – activates the human D2 dopamine receptor; P14416; DiscoveRx PathHunter D2 beta-arrestin, luminescence, 90 min; 100% = 57 uM dopamine signal; activation, % (no concentration beside the values); hit rate 0.084% among 360,000; in the data active = activation above about 40%; inconclusive = about 15% to 40%; inactive = below about 15%; note: compound concentration not given in the record; the text of the record calls up to 30% inactive
Target sequence (P14416 whole entry, looked up): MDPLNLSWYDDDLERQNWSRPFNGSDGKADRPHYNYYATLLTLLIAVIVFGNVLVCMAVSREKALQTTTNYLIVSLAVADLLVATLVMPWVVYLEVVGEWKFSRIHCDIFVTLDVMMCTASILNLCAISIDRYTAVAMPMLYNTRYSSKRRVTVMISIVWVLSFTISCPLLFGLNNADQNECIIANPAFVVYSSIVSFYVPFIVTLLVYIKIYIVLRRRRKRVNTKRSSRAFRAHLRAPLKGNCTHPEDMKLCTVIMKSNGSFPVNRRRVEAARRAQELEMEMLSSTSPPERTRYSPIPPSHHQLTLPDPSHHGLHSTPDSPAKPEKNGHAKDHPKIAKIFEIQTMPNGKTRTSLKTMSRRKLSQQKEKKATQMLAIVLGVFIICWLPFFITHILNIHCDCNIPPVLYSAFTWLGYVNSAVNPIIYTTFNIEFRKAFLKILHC
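DiscoveRx PathHunter D2 beta-arrestin cells (2,100/well) attached overnight, then compound-stimulated 90 min at 37 C in HBSS/10 mM HEPES/0.1% Tween-20 buffer; beta-galactosidase complementation read by luminescence after 1 h at ambient temperature. Dopamine 57 uM final (EC100) as control.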
Sfp PPTase inh – blocks B. subtilis Sfp PPTase activity; Biochemical Sfp PPTase activity, qHTS; Potency, µM, inactives show max response, negative = inhibition, usual class: inhibitors; hit rate 3.5% among 310,000; active = well fitted inhibition curve with a large enough effect; inconclusive = small, poorly fitted or top-dose-only effect, or another doubt; inactive = no such curve, though single readings can be large or run the other way;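 note: the enzyme is Sfp with the accession as filed and its product quenches rhodamine fluorescence; potency is the fitted concentration of half-maximal effect; 0% = enzyme reaction without inhibitor and -100% = no enzyme wells; top concentration of the series not given in the record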
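After 15 min at room temperature with compound, 15 nM Sfp received 5 uM rhodamine-CoA plus 12.5 uM BHQ-2-ybbR (50 mM Hepes pH 7.6, 10 mM MgCl2). Rate came from the fluorescence difference over 30 min, ex 525/em 598 nm.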
PINK1 expr mod – changes PINK1 expression; PINK1 immunofluorescence, high-content cytometry, 24 h; Potency, µM (titrated, usually from 76.6 µM), for the others: at the highest dose activation (PINK1 increase), most hits filed as activators; hit rate 0.2% among 410,000; AID 624263; active = well fitted activation curve with a large enough effect; inconclusive = small, poorly fitted or top-dose-only effect; inactive = flat fitted curve, though single readings scatter; cell line not stated here;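 note: potency is the fitted concentration of half-maximal effect; % of control where 0% means no effect; nearly all actives have a fitted effect of over 65% in size; a mitochondrial uncoupler was the plate control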
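Fluorescence from anti-PINK1 antibody, together with nuclear and cell stains, was scanned on a laser-scanning cytometer. Before staining, stable-line cells were incubated 24 hours with compounds at 5 concentrations; primary antibody 12 h at 10 degrees C.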
ClpP mod – qHTS Assay for Activators of ClpP | purified B. subtilis ClpP, FRET peptide cleavage, 20 min | Potency, µM (doses to about 57.5 µM), for the others: top-dose activity change, negative = active | hit rate 1.9% among 340,000; active = well fitted falling curve with a large enough effect; inconclusive = small, poorly fitted or top-dose-only effect; inactive = no such curve, though single readings can be large or run the other way; note: potency is the fitted concentration of half-maximal effect; the source files actives as falling curves though it sought activators and does not explain the sign; nearly all actives have a fitted effect of over 65% in size; many hits overshoot -100%
Target sequence (P80244 whole entry, looked up): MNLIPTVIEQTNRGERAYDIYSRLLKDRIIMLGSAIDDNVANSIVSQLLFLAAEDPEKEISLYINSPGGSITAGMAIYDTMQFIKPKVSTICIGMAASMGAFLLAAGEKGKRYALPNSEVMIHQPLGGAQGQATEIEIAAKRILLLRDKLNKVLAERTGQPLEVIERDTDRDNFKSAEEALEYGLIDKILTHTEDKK
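Purified B. subtilis ClpP, 10 microg/mL final in Tris/HCl pH8 with KCl, BSA, glycerol and Tween-20, cleaved an Abz/nitrotyrosine-quenched decapeptide. Fluorescence (ex 320, em 430) was read at 0 and 20 min at room temperature. Delta was normalized to 5.8 microM ADEP and DMSO/no-enzyme controls.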
* hit, by the source's call; ? = inconclusive; . = not tested or not shown; & = joins results of further samples; [ ] = dose if it differs, or a comment.

SMILES	Menin-MLL FL inh	gsp antag	gsp agonist	D2 ag	Sfp PPTase inh	PINK1 expr mod	ClpP mod
Cc1nn(C)c(=O)n1-c1ccccc1	-0.3	14%	-11%[15.4 µM]	-1.5	23%	-0.8%	.
COc1ccc2[nH]c(C(=O)O)c(CCC(=O)O)c2c1	1.5	1%	9%	0.5	6%	0.0%	20µM*
Cc1nn(C(=O)CCCC(=O)NCc2ccccc2)c2ccccc12	.	9%	2%	4.8	-12%	2.2%	0.0%
O=C(CN1CCN(C(=O)c2cccc(F)c2)CC1)Nc1ccccc1F	-1.5	-4%	-9%	-1.1	8%	-2.5%	?
Cc1ccc(Nc2ncc3c(n2)CC(c2ccco2)CC3=O)c(C)c1 (stereo unspecified)	2.3	-2%	-21%	-0.2	-17%	-0.2%	-3.1%
CCC(c1nnnn1Cc1cccs1)N1CCN(c2nc3ccccc3s2)CC1 (stereo unspecified)	-0.8	?	-7%	-1.7	14%	0.9%	-1.9%
COc1cccc(C(=O)NNC2=CC(=O)CC(C)(C)C2)c1	-1.2	-1%	-25%	-1.4	24%	-4.0%[38.3 µM]	1.0%
CCc1nnc(NC(=O)CCS(=O)(=O)Cc2ccccc2)s1	5.7	7%	-20%[15.4 µM]	-3.1	13%	0.4%	.
COCC(=O)N1CCC2(CCN(Cc3ccccc3)CC2)CC1	0.0	.	.	.	15%	-0.4%	.
COc1ccc(S(=O)(=O)N2CCc3ccccc32)cc1C(=O)N1CCC(C)CC1	.	-12%	?	2.3	.	0.4%	.
CCc1ccccc1N(C(=O)c1snc(C(N)=O)c1N)C(C(=O)NCC1CCCO1)c1c[nH]c2ccccc12 (stereo unspecified)	3.3	?	2%	-0.3	-2%	-0.8%	.
CCOC(=O)C1=C(N)Oc2cc(O)ccc2C1c1ccc([N+](=O)[O-])cc1 (stereo unspecified)	4.3	?	?	0.3	25µM*	8.8%	.
NC(=O)Nn1c(CCC(=O)O)ccc1-c1ccc(Cl)cc1	-0.3	-8%	-1%[15.4 µM]	-4.1	23%	-1.8%	.
Cn1c(=O)oc2cc(S(=O)(=O)Nc3cccc4c3CCCC4)ccc21	?	21%	?	-2.5	1%	-1.0%	2.5%
Cn1cccc1/C=N/NC(=O)c1ccc[n+]([O-])c1	0.3	6%	-14%	0.6	-5%	0.8%	1.2%
COC(=O)CSc1nc2cc3c(cc2cc1C)OCO3	2.0	-17%	-1%[15.4 µM]	-3.5	-6%	1.8%	-0.4%
O=C(O)c1ccc(N2CCCC2=O)cc1	6.6	5%	-62%[inhibitor]	-0.1	8%	1.1%	0.0%
Cc1nc2ccccc2c(=O)n1NC(=O)c1c(O)c2c(n(CC(C)C)c1=O)CCCC2	5.8	-7%	-34%[inhibitor]	-3.4	3%	30%[38.3 µM]	-8.1%
Cc1cccc(C)c1NC(=O)CN(C)C(=O)C1CC1C (stereo unspecified)	.	13%	?	-3.4	.	0.8%	0.2%
COC(=O)N/N=C/c1sc(N2CCCCC2)nc1-c1cccs1	7.6	-22%	-8%[15.4 µM]	-1.6	22µM*	4.8%	-1.9%
O=C(CCNc1ccc(Cc2ccncc2)cc1)c1ccc([N+](=O)[O-])cc1	-0.4	-19%	0%[15.4 µM]	5.1	-14%	-1.3%	.
Cc1oncc1C(=O)NC(C)C	4.0	13%	?	-2.9	25%	-0.4%	-0.9%
OC1(c2nc3ccccc3[nH]2)CCCCC1	.	-3%	-47%[inhibitor]	-3.5	.	0.4%	-2.4%
COc1ccc(OC)c(-c2csc(NC(=O)CSc3nnnn3C)n2)c1	.	7%	?	-1.2	.	0.5%	-1.0%
CC(OC(=O)CCc1nc2ccccc2c(=O)[nH]1)C(=O)NCc1ccc2c(c1)OCO2 (stereo unspecified)	-2.4	-2%	19%	-3.5	19%	6.8%[38.3 µM]	-0.8%
(further entries)
SMILES	Menin-MLL FL inh	gsp antag	gsp agonist	D2 ag	Sfp PPTase inh	PINK1 expr mod	ClpP mod
CC(=O)Nc1ccc(NC(=O)CN2CCN(c3ccccn3)CC2)cc1	-9.3	-10%	4%[15.4 µM]	?	6%	-1.6%	0.7%
CCOC(=O)CON1C(=O)c2ccccc2C1=O	1.2	11%	?	-2.8	-18%	-1.0%	-0.1%
CCCNC(=O)CN1C(=O)NC(CC)(c2ccc(F)cc2)C1=O (stereo unspecified)	0.4	9%	-9%	-4.1	19%	1.6%	.
O=c1[nH]c(=O)c2[nH]c(=O)n(-c3ccccc3)c2[nH]1	.	-1%	10%	0.2	.	2.8%	.
Cc1ccsc1CNCc1cc(Cl)ccc1O	.	5%	.	-4.6	.	4.5%	-2.4%
Cc1cccc(S(=O)(=O)Nc2nc3ccccc3nc2NCc2ccco2)c1	14	-24%	0%[15.4 µM]	1.5	11%	0.0%	-7.0%
CCCc1cc(=O)[nH]c(N/N=C/C=C\c2ccccc2)n1	-1.0	-2%	0%[15.4 µM]	-3.6	-12%	1.1%	.
CNC(=O)COC(=O)/C=C/c1cn(-c2ccccc2)nc1-c1ccc(C)o1	4.1	-20%	10%[15.4 µM]	1.4	50µM*	4.0%	.
CSCCC(NC(=O)c1ccccc1)C(=O)N1CC=C(c2ccccc2)CC1 (stereo unspecified)	.	-15%	-6%	-0.5	-11%	0.1%	0.3%
O=S(=O)(c1cccs1)N1CCN(c2ccccc2Cl)CC1	.	0%	2%	-1.2	.	-2.1%	-7.7%
CSc1cccc(NC(=O)CCCOc2cc(=O)n(C)c3ccccc23)c1	.	.	.	0.5	.	3.7%	-6.5%
Cc1ccc(N2CC(C(=O)OCC(=O)Nc3cccc(Cl)c3C)CC2=O)cc1 (stereo unspecified)	.	-15%	-6%	-1.4	.	4.1%	-0.9%
Nc1nc(NCCCN2CCOCC2)nc(Nc2cccc(Cl)c2)c1[N+](=O)[O-]	1.5	-2%	?	-7.4	-22%	3.9%	.
CC(C)NC(=O)c1c(CSc2ccc(Cl)cc2)noc1C(=O)NCc1ccccc1	.	1%	24%	0.8	.	0.9%	-0.7%
Cc1ccc(CSCC(=O)N2CCN(c3ccc(F)cc3)CC2)cc1	4.8	-11%	-13%	-2.1	12%	0.5%	-1.1%&-1.2%
CCCc1ccccc1OCCNC(=O)c1cc(=O)n(C)c(=O)n1C	-4.2	-6%	7%[15.4 µM]	-7.9	11%	0.1%	.
COC(=O)c1c(NC(=O)c2ccnn2C)sc(C)c1C	.	1%	7%	-1.4	.	-0.6%	-12%
OCCNC(=S)Nc1ccc(Oc2ccccc2)cc1	0.3	13%	-36%[inhibitor]	-3.2	10%	1.6%	0.9%
O=C(CN1C(=O)NC2(CCSC2)C1=O)NCc1ccccc1 (stereo unspecified)	-2.8	9%	17%	-2.3	16%	0.3%	-1.8%
O=C(NC1CCCC1)C(Cc1ccccc1)n1cccc1 (stereo unspecified)	0.1	-4%	7%	3.7	12%	2.6%	1.0%
CC[C@@]1(C(=O)OC)N[C@H](CN(C)S(=O)(=O)c2ccc(C(F)(F)F)cc2)[C@@H]2C(=O)N(C)C(=O)[C@@H]21	.	1%	.	-2.3	.	-0.1%	1.4%
CCc1nn(C(C)C(=O)N(C)Cc2ccccc2)c(=O)c2cc3occc3n12 (stereo unspecified)	-2.0	7%	2%	-5.1	15%	2.1%	-6.6%
CC(=O)c1cccc([N+](=O)[O-])c1	.	2%	.	-2.6	.	1.2%	2.3%
O=C(NCC1CCCO1)/C(=C/c1cn(-c2ccccc2)nc1-c1cccnc1)NC(=O)c1ccccc1 (stereo unspecified)	1.7	-6%	-17%	0.0	6%	-0.8%	.
CCC(NC(=O)c1ccccc1NC(=O)c1ccco1)C(=O)O (stereo unspecified)	3.3	12%	-10%	-3.6	3%	1.8%	1.3%
The list goes on.
SMILES	Menin-MLL FL inh	gsp antag	gsp agonist	D2 ag	Sfp PPTase inh	PINK1 expr mod	ClpP mod
COC(=O)c1ccc2c(=O)n(Cc3ccco3)c(SCC(=O)Nc3ccc(C)c(Cl)c3)nc2c1	-1.4	3%	22%	-2.9	2%	22%	-1.0%
C[C@H](CO)N1C[C@H](C)[C@@H](CN(C)S(C)(=O)=O)Oc2c(NC(=O)Cc3ccccc3)cccc2C1=O	.	6%	.	1.5	.	4.6%	0.0%
COc1cccc(C(=O)Nc2ccc(Oc3cccc(C(F)(F)F)c3)nc2)c1	13	-9%	?	0.6	35%[activator]	6.1%	.
CC(=O)c1c(C)[nH]c(C(=O)OCC(=O)NCCC2=CCCCC2)c1C	.	-4%	-7%	-0.5	.	0.5%	-3.1%
CCOC(=O)Cc1cc(=O)n2[nH]c(-c3ccc(C)cc3)cc2n1	7.1	-7%	30%	-0.5	-13%	2.1%[38.3 µM]	?
O=C(CN1C(=O)NC2(CCCC2)C1=O)Nc1nc2c(F)cc(F)cc2s1	.	0%	-4%[15.4 µM]	-3.3	.	0.1%	-2.0%
CCOC(=O)N1CCN(C(=O)COC(=O)Cc2ccc(Cl)cc2)CC1	2.4	0%	14%	-1.7	18%	-0.7%	.
O=C(Nc1ccnn1C1CCN(C(=O)c2ccccc2C(F)(F)F)CC1)C1CC1	.	-15%	-4%	-3.0	9%	1.1%	2.9%
CCNC(=S)NNC(=O)c1cccs1	3.1	-5%	-8%	-4.8	18%	-1.6%	29%
Cc1ccc(S(=O)(=O)NCCC(C)C)cc1[N+](=O)[O-]	-0.3	-6%	38%	1.0	8%	6.5%	-2.3%
CCOC(=O)Cc1csc(NC(=O)CSc2nnc(-c3ccc(C)cc3)o2)n1	-0.2	1%	11%	-2.3	0%	-3.0%[38.3 µM]	-3.0%
CC(C)NC(=S)NC(=O)/C=C/c1cccc2ccccc12	2.5	1%	7%	-0.7	-5%	15%	?
COC(=O)C1=CN(C2CC2)C=C(C(=O)OC)C1c1ccccc1OC	-1.5	-15%	-9%	-2.5	-3%	-1.4%	32µM*
CCOc1ccc(S(=O)(=O)N2CCC(C(=O)OC(C)C(=O)N(C)C3CCCCC3)CC2)cc1 (stereo unspecified)	-1.7	-2%	20%	1.6	12%	-0.2%	-0.6%

Outcome played no part in choosing rows; 5.1% or so of the library scored in one or more.
